ALR inh: inhibitors of human ALR sulfhydryl oxidase, primary screen, biochemical, H2O2 detection, HRP-luminol luminescence, single point; FAD-linked sulfhydryl oxidase ALR (Homo sapiens), P55789; purified ALR, DTT oxidation; inhibition, % (no concentration beside the values); actives 3.8% (n = 290,000); AID 485317, 2010;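 active = mean and each replicate at 75% or more; inconclusive = only one of the two met; inactive = neither met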;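 also: stock transfer was 7.5 nL into about 7.5 µL; 0% = neutral wells and 100% = wells with inactivated enzyme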
Target sequence (P55789 whole entry, looked up): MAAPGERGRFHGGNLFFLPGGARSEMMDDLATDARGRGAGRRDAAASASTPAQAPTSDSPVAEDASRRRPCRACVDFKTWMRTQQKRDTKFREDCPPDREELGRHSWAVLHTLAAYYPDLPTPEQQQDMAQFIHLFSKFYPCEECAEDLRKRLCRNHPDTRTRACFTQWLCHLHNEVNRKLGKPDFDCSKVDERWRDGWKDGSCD
HNF4A DNA FP: change in binding of human HNF4A to DNA, primary screen, biochemical, fluorescence polarization, FITC-DNA; activity change, % at 10 µM; Hepatocyte nuclear factor 4-alpha (Homo sapiens), P41235; AID 1224865, 2016; actives 0.3% (n = 360,000); 1 h; in the data active = activity change above about 30%, passing the limit was not always enough;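 also: controls were the assay level and a saturating level of protein; the project sought stronger binding though the title names inhibitors; some compounds called inactive have numbers as strong as hits; positive values seem to mean higher polarization but the record does not say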
Target sequence (P41235 whole entry, looked up): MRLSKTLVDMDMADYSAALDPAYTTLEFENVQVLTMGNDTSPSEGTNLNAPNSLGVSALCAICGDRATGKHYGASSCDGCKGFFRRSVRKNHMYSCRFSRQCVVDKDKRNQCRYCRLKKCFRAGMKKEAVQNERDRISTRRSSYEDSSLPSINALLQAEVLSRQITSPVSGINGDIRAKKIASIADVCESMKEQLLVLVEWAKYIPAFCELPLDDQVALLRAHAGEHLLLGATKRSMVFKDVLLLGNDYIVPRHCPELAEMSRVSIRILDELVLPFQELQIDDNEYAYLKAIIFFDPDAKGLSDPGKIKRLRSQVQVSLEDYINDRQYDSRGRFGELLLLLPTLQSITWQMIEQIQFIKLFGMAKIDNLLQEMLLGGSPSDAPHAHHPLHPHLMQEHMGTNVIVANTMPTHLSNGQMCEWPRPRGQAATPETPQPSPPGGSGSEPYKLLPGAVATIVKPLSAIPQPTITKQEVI
Beta2AR agonist: beta2AR agonists driving receptor internalization, primary screen, cell-based, FAP fluorogen, flow cytometry; Beta-2 adrenergic receptor (Homo sapiens), P07550; Am2.2-beta2AR cells; reference of the scale not given here; response, % (concentration not given with the values); actives 0.43% (n = 340,000);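 active = response above a set limit, near 3 SD of response in nonfluorescent compounds, cut at about 42% in these data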;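 also: stock transfer was 100 nL into about 11 µL; a reference agonist was the positive control; negative values mostly stem from fluorescent compounds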
LANA-H2B inh: blockers of LANA interaction with H2A/H2B – biochemical, FP readout, HTS, primary screen; actives 0.6% (n = 320,000); Protein LANA1 (Human herpesvirus 8 type P (isolate GK18)), Q9QR71; cell-free LANA-H2A/H2B peptide, fluorescence polarization; inhibition, % (test concentration not listed); in the data active = inhibition mostly above about 10%, no sharp cut-off; inactive = mostly below about 6.7%;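 also: stock transfer was 7.5 nL into about 10 µL; 0% = median of vehicle wells and 100% = median of positive control wells; one replicate is shown; the record names a cut of 25% in any replicate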
Vif A3G: inhibitors of Vif binding to APOBEC3G peptide, primary screen, biochemical, TR-FRET, GST-Vif 1-94, biotin-A3G peptide, dose response retest (AID 1117319); Virion infectivity factor (Human immunodeficiency virus type 1 group M subtype B (isolate …; TR-FRET GST-Vif / biotin-A3G peptide binding; higher % means a stronger effect; test concentration not given here; strong numbers were not always called active; inhibition, %; hits with a dose series show IC50 in µM; actives 0.57% (n = 260,000);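 active = above the screen mean plus three standard deviations and confirmed in dose response; inconclusive = results disagree or hit not tested in dose response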;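 also: Vif residues 1-94 fused to GST binding biotinylated APOBEC3G peptide 110-148; 0% = full assay without inhibitor and 100% = GST in place of GST-Vif; retest series ran down from 100 µM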
RanGTP-Impb inh: inhibitors of RanGTP-importin-beta interaction, primary screen, biochemical, FRET, CFP-Ran, YFP-importin-beta, homogeneous; actives 1.1% (n = 300,000); cell-free CFP-Ran/YFP-importin-beta FRET ratio; Ran GTPase (GTP-bound) - importin-beta complex; inhibition, % (test concentration not listed);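 active = most replicates above 15%; inconclusive = exactly half above 15%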;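 also: 0% = DMSO wells and 100% = Ran loaded with GDP instead of GTP; wells of about 40 µL received 100 nL stock; the first replicate is given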
Calb FLC: C. albicans growth inhibition with fluconazole, primary screen, CaCi-2 strain, Alamar Blue fluorescence; growth inhibition, % (concentration not given with the values); actives 0.57% (n = 300,000); AID 1979, 2009; C. albicans CaCi-2 (fluconazole-resistant clinical isolate) + fluconazole, 48 h;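 active = most replicates above 75%; inconclusive = exactly half above 75%; inactive = most below 75%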;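 also: all wells also contain fluconazole at 8 µg/ml as a sub-toxic cotreatment; 0% = median of DMSO wells and 100% = median of geldanamycin control wells; wells of about 8 µL received 7.5 nL stock; the first replicate is given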
* marks the source's active call; other numbers are inactive results; ? = inconclusive; · = not tested or not shown; & = joins results of further samples. Rows were taken by chance. About 6.3% of those tested had a hit in this group.

Values run as follows: ALR inh	HNF4A DNA FP	Beta2AR agonist	LANA-H2B inh	Vif A3G	RanGTP-Impb inh	Calb FLC
> COc1ccc(C2C(Oc3ccccc3)C(=O)N2c2ccc(C)c(C)c2)cc1OC (configuration not stated)
    3	-5.1	2	-3.9	2%	-3.8	5
> O=P(/C(=N/O)Sc1ccccc1)(N1CCOCC1)N1CCOCC1
    -2	2.0	8	0.9	-2%	4.8	7
> Cc1nonc1OCCNCCNc1ccc([N+](=O)[O-])cc1Cl
    -31	-2.3	4	1.7	·	-2.9	-1
> COc1ccc(NC(=O)CSc2nc3[nH]ncc3c(=O)[nH]2)c(OC)c1
    -3	1.6	15	-1.0	2%	-0.3	-5
> O=C1c2cc(Br)ccc2OC2C=CC=CC12 (configuration not stated)
    ·	0.9	-5	·	-11%	·	·
> O=C(NC1CCCCC1)C(c1ccccc1)N(Cc1cccnc1)C(=O)c1csnn1 (configuration not stated)
    -1	3.7	-6	1.4	·	-2.9	3
> CCNc1nc(NCC)nc(N2CC(=O)N(CC(=O)OCC)C2=N)n1
    -9	0.4	-5	-0.1	-3%	-2.3	-5
> c1ccc(COc2ccc(OCCN3CCCC3)cc2)cc1
    ·	-1.9	2	·	22%	-0.7	0
> COc1ccc(CCNC(=O)C(=O)NCC2OCCN2S(=O)(=O)c2ccc(Cl)cc2)cc1 (configuration not stated)
    ·	0.8	-1	0.8	·	1.3	0
> COc1cccc(CNC(=O)c2ccc(NC(=O)CC3SC(N4CCCC4)=NC3=O)cc2)c1 (configuration not stated)
    ·	5.7	-4	39*	·	·	·
> COc1ccc(CCNC(=O)C2CCC(=O)N(C3CC3)C2)c(OC)c1 (configuration not stated)
    -15	1.3	6	-0.3	·	6.2	0
> COc1ccc(-c2csc(NC(=S)NC(=O)c3cc4ccccc4o3)n2)cc1Br
    -16	0.7	1	-9.4	·	2.4	0
> CN1CCN(CCCN(Cc2ccco2)C(=S)Nc2ccc(Cl)cc2)CC1
    ·	-0.7	3	-5.6	11%	0.6	24
> COc1ccc(-n2c(C)nc3sc4c(c3c2=O)CCCC4)cc1
    21	·	·	1.1	5%	1.1	11
> Cc1ccc(CSCc2ccc(C(=O)NCCCN3CCOCC3)o2)cc1
    54	0.2	-2	-4.8	-11%	0.0	-15
> COc1cccc(NC(=O)CN(C)C(=O)C2=COCCO2)c1
    ·	0.3	-1	·	0%	·	·
> CC(=O)Nc1ccc2nc(NC(=O)CN3CCOCC3)sc2c1
    ·	1.9	-1	0.2	10%	2.4	-3
> CC1(C)Cc2nc3sc4c(=O)[nH]cnc4c3cc2CS1
    0	-1.7	-3	-3.4	4%	-0.1	1
> COc1ccc(-n2c(CCC(=O)O)ccc2-c2ccccc2)cc1
    24	13	5	-0.2	·	0.2	5
> O=C(COC(=O)Cc1ccsc1)NC(c1ccccc1)c1ccccc1
    0	2.5	-6	-1.4	·	0.2	12

Single records, as listed above:
O=C(NC1CCCCC1)C(c1ccccc1)N(Cc1cccnc1)C(=O)c1csnn1 (configuration not stated) is listed with ALR inh = -1; HNF4A DNA FP = 3.7; Beta2AR agonist = -6; LANA-H2B inh = 1.4; Vif A3G = ·; RanGTP-Impb inh = -2.9; Calb FLC = 3
Cc1ccc(CSCc2ccc(C(=O)NCCCN3CCOCC3)o2)cc1 is listed with ALR inh = 54; HNF4A DNA FP = 0.2; Beta2AR agonist = -2; LANA-H2B inh = -4.8; Vif A3G = -11%; RanGTP-Impb inh = 0.0; Calb FLC = -15

New compounds follow:
Values run as follows: ALR inh	HNF4A DNA FP	Beta2AR agonist	LANA-H2B inh	Vif A3G	RanGTP-Impb inh	Calb FLC
> O=C(COc1ccc(Br)cc1)N1CCNC1=O
    -7	-1.9	-1	·	·	-1.3	2
> Cc1ccc(-c2nnc(N(C)C(=O)c3cccnc3)s2)cn1
    -1	-1.1	-9	-1.3	-1%	-4.0	1
> CCOC(=O)CN/C=C(\C#N)c1ccccc1
    -18	1.8	3	5.8	2%	-2.4	-13
> COc1ccc(Cl)cc1S(=O)(=O)N1CCN=C1C
    -5	-0.6	2	-0.4	3%	1.9	7
> CCC1(C)N=C(c2ccc3c(c2)OCO3)CC(c2ccccc2O)N1 (configuration not stated)
    1	3.0	-6	-3.2	7%	-2.2	6
> Cc1ccc(-c2nc(NCCN3CCOCC3)c3ccccc3n2)cc1
    -5	-4.1	-6	-0.6	-4%	-3.3	0
> CCOC(=O)N1CCN(C(=S)NC(=O)c2nn(C)cc2Br)CC1
    5	0.3	-2	4.0	-5%	0.1	-4
> Cc1ccc(Oc2nc(CN3CCOCC3)nc3sc4c(c23)CCC(C)C4)cc1 (configuration not stated)
    54	-1.6	-9	-3.8	-8%	3.5	26
> O=C(Cc1ccc(S(=O)(=O)N2CCOCC2)s1)Nc1nc2c(s1)CCCC2
    -9	0.9	0	-1.1	29%	2.6	-11
> CC(C)OC(=O)CN1CCN(C2c3ccccc3-c3ccccc32)CC1
    ·	3.6	6	-0.3	1%	1.4	-25
> COc1ccc2nc(N3CCCCC3)c(/C=C3\SC(=S)NC3=O)cc2c1
    5	16	20	-2.2	3%	-4.3	-4
> Cc1ccc(C(CNS(=O)(=O)c2ccccc2)N2CCN(C)CC2)cc1 (configuration not stated)
    ·	5.2	13	8.8	-4%	-2.8	-3
> COc1ccc(C(=O)Nc2ccc3c(c2)nc2n3CCSC2)cc1
    99*	3.8	-11	-0.8	-1%	1.9	-5
> COc1ccc(Cl)cc1C(=O)CSc1nnnn1C1CCCCC1
    ·	-0.7	-20	7.5	0%	4.1	4
> CN1CCCC(OC(=O)c2ccc(S(=O)(=O)N(C)C)cc2)C1 (configuration not stated)
    2	-3.2	-1	-2.4	-5%	1.2	-8
> CCCN1CCC(NC(=O)Cc2ccc(C)cc2)CC1
    -1	0.5	4	-3.1	·	11	-3
> CCCN1C(=O)c2cc(C(=O)Nc3ccccc3CC)ccc2C1O (configuration not stated)
    -10	1.3	0	3.5	12%	-1.2	5
> COCCCN=C1NN=C(c2cc(C)n(Cc3ccco3)c2C)CS1
    29	-3.8	22	-0.9	·	-1.2	?
> O=[N+]([O-])c1ccccc1/C=N/N1CCN(Cc2ccccc2)CC1
    -4	2.4	3	0.1	·	-2.5	-14
> O=C(Nc1ccc(N2CCOCC2)cc1)Nc1ccc2nc(-c3ccco3)c(-c3ccco3)nc2c1
    -7	-0.8	16	2.8	?	26*	-4
> CC(C)(C)c1cc(C(=O)NNc2cccc(Cl)c2)n(Cc2ccccc2)n1
    -4	-0.4	0	-2.3	1%	2.8	-6
> CCOC(=O)c1cc2cc([N+](=O)[O-])ccc2oc1=O
    1	-1.4	-8	-5.2	-4%	0.9	10
> Cc1cc(C)cc(NCCC#N)c1
    -1	2.0	-1	-4.4	70%&10%	0.9	-5
> Cc1nc(N)sc1-c1csc(Nc2ccc(Cl)cn2)n1
    13	7.9	10	-4.7	?	7.4	34
> COc1ccc(C(=O)NCC(=O)OCC(=O)Nc2ncc(Cl)cc2Cl)cc1[N+](=O)[O-]
    ·	-6.9	-6	3.5	14%	·	·
> O=C(c1ccccc1Cl)N1CCCC(c2nc3c(nnn3Cc3ccccc3)c(=O)[nH]2)C1 (configuration not stated)
    ·	1.8	5	11	7%	?	16
> CCN(CC)S(=O)(=O)c1cccc(NC(=O)CN2C(=O)NC3(CCOc4ccccc43)C2=O)c1 (configuration not stated)
    ·	2.0	5	·	8%	·	·
> C=CCn1c(SC)nccc1=O
    ·	2.3	1	·	-4%	·	·
> O=C(/C=C/c1ccc(Cl)cc1)N1CCN(c2ccc(Cl)cc2[N+](=O)[O-])CC1
    -12	5.0	-6	2.9	1%	6.2	58
> c1ccc(N=P(c2nc3ccccc3o2)(N2CCOCC2)N2CCOCC2)cc1
    3	3.5	24	5.9	20%	6.9	3
> O=C(CCCN1C(=O)/C(=C\c2cccs2)SC1=S)Nc1ccc(O)cc1C(=O)O
    21	6.2	1	-1.4	·	0.1	3
> CCCN(CCC)C(=O)C(c1ccccc1)C1(O)CCCCC1 (configuration not stated)
    ·	-2.6	-12	·	-2%	·	·
> COc1ccc(C(CNC(=O)COc2ccccc2)N2CCOCC2)cc1 (configuration not stated)
    -2	-0.1	-1	-2.3	·	0.5	0
> COc1cccc(NC(=O)c2cc(-c3ccccn3)nc3ccccc23)c1
    ·	0.9	3	-1.6	-5%	·	·
> Cc1nc(NC(=O)C2CC2)sc1C(=O)Nc1ccccc1Cl
    18	2.7	13	-0.3	·	2.4	59
> Cc1cc(C)cc(Oc2ccccc2C=O)c1
    -36	-1.5	22	6.2	-5%	-1.8	-2
> CCCCC(CCC(=O)NNC(=O)Cc1ccccc1)C(=O)O (configuration not stated)
    -4	1.2	10	-0.7	·	-4.4	-5
> O=C(/C=C/c1ccc[nH]1)c1ccc(F)cc1
    52	7.5	2	-0.9	·	28*	-15
> COc1ccc(NC(=O)CS(=O)CC(=O)NC2CCCc3ccccc32)cc1 (configuration not stated)
    0	-1.7	4	0.0	-3%	0.2	20
> COC(=O)c1ccccc1S(=O)(=O)N1CCC(C(=O)NC2CCCCC2C)CC1 (configuration not stated)
    1	-2.9	6	-2.1	-11%	·	·
> CCOC(=O)C1CCN(S(=O)(=O)c2ccc(Br)c(OCC)c2)CC1
    -3	2.4	-14	2.1	3%	-2.2	16
> COc1ccc(OC)c(NC(=O)COC(=O)CCc2ccc(S(=O)(=O)N3CCOCC3)cc2)c1
    -6	0.0	3	-5.2	-3%	·	·
> Cc1ccccc1NC(=O)CN1C(=O)NC(C)(c2ccc3c(c2)OCO3)C1=O (configuration not stated)
    -2	-0.1	0	-3.9	?	5.1	1
> CCOC(=O)c1ccc(NC(=O)CSc2nnc(CNc3ccc(OC)cc3)n2C)cc1
    -7	-2.1	-5	-4.3	9%	1.9	1
> CCCCNC(=O)Nc1cc(C)on1
    -4	-1.9	-5	1.0	1%	?	5
> Cc1ccc(NC(=O)COc2ccc(Cl)cc2Cl)cc1S(=O)(=O)N1CCOCC1
    ·	3.4	-3	·	-4%	·	·
> COc1cc(NC(=O)CN2C(=O)c3ccccc3S2(=O)=O)cc(OC)c1
    ·	2.4	15	-1.0	·	·	·
> C/C=C/Cn1c(N2CCCCCC2)nc2c1c(=O)[nH]c(=O)n2C
    18	-0.2	-17	1.3	-1%	-5.6	1
> O=C(c1cccc([N+](=O)[O-])c1)c1ccccn1
    -4	2.4	-11	2.3	12%	5.4	-3
> Cc1c(NS(=O)(=O)c2cccc(C(=O)NCc3ccncc3)c2)c(=O)n(-c2ccccc2)n1C
    ·	2.5	-7	-4.5	1%&72%	-4.3	10
> CCc1cc(=O)oc2cc(C)cc(OCC(=O)N3CCC(C(=O)NC(C)C)(c4ccccc4)CC3)c12
    -3	1.9	6	1.6	·	-1.5	-1
> O=C(CSCc1c(F)cccc1Cl)NCC1CCCO1 (configuration not stated)
    ·	1.1	0	·	0%	2.7	-15
> O=S(=O)(Nc1ccncc1)c1ccccc1
    -13	0.9	5	-2.0	-2%	?	1
